A1 inh = caspase 3/7 activation in MEF A1-2A-BIM cells, primary screen, A1 inhibitor project, cell-based, luminescence, HTS | actives 0.066% (n = 330,000) | caspase activation, % (concentration not given with the values) | AID 2462, 2010 | Caspase-Glo 3/7 luminescence, 3 h; percent of clofoctol response, vehicle zero;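 active means over half of replicate activation scores above 10%, or exactly half above 10 with the replicate mean above 10; inconclusive means replicate mean below 10 yet half the replicates above 10; inactive means over half of replicates below 10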;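 further: wells of about 30 µL received 50 nL stock; many hits fall short of the cut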
Vif TR-FRET = inhibitors of Vif binding to APOBEC3G peptide, primary screen, biochemical, TR-FRET, GST-Vif 1-94, biotin-A3G peptide, dose response retest (AID 1117319). inhibition, %; hits with a dose series show IC50 in µM. actives 0.57% (n = 260,000). Virion infectivity factor (Human immunodeficiency virus type 1 group M subtype B (isolate …. TR-FRET GST-Vif / biotin-A3G peptide binding; higher % means a stronger effect; test concentration not given here; strong numbers were not always called active;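 active means above the screen mean plus three standard deviations and confirmed in dose response; inconclusive means results disagree or hit not tested in dose response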;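 further: Vif residues 1-94 fused to GST binding biotinylated APOBEC3G peptide 110-148; 0% = full assay without inhibitor and 100% = GST in place of GST-Vif; retest series ran down from 100 µM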
Calb FLC = C. albicans growth inhibition with fluconazole, primary screen, CaCi-2 strain, Alamar Blue fluorescence; C. albicans CaCi-2 (fluconazole-resistant clinical isolate) + fluconazole, 48 h; growth inhibition, % (test concentration not listed); actives 0.57% (n = 300,000);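 active means most replicates above 75%; inconclusive means exactly half above 75%; inactive means most below 75%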;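 further: all wells also contain fluconazole at 8 µg/ml as a sub-toxic cotreatment; 0% = median of DMSO wells and 100% = median of geldanamycin control wells; wells of about 8 µL received 7.5 nL stock; the first replicate is given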
MLL AF4-AF9 inh = inhibitors of AF4 peptide binding to AF9, primary screen, biochemical, AlphaScreen, biotin-AF4 peptide, FLAG-AF9, single point; Protein AF-9 (Homo sapiens), P42568; inhibition, % at 10 µM; actives 0.47% (n = 350,000); AID 651704, 2012;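 active means every replicate reaching a set inhibition limit, whatever the replicate mean, cut at about 25% in these data; inconclusive means mean inhibition reaches that limit but some replicates miss it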;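 further: 0% = plate neutral control median and 100% = total signal loss; the record names both 10 and 1 µM as test concentration; the first replicate is given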
RanGTP-Imp inh = inhibitors of RanGTP-importin-beta interaction, primary screen, biochemical, FRET, CFP-Ran, YFP-importin-beta, homogeneous. Ran GTPase (GTP-bound) - importin-beta complex. cell-free CFP-Ran/YFP-importin-beta FRET ratio. inhibition, % (no concentration beside the values). actives 1.1% (n = 300,000). AID 2216, 2009;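 active means most replicates above 15%; inconclusive means exactly half above 15%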;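 further: 0% = DMSO wells and 100% = Ran loaded with GDP instead of GTP; wells of about 40 µL received 100 nL stock; the first replicate is given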
T cruzi inh = inhibitors of intracellular T. cruzi growth, primary screen, luminescence, NIH3T3 host cells; T. cruzi beta-gal in NIH3T3, 90 h; inhibition, % (no concentration beside the values); actives 1.4% (n = 300,000);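 active means mean inhibition across valid replicates above about 55%, limit read from the data; inconclusive means mean below that limit but half or more replicates reach it; inactive means mean below it, under half of replicates reach it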;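 further: signal also drops with host cell toxicity which is not excluded here; 0% = plate median of DMSO wells and 100% = zero luminescence signal; higher percent means less beta-gal luminescence so fewer parasites; stock transfer was 50 nL into about 50 µL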
LANA-H2B inh = blockers of LANA interaction with H2A/H2B – biochemical, FP readout, HTS, primary screen; Protein LANA1 (Human herpesvirus 8 type P (isolate GK18)), Q9QR71; cell-free LANA-H2A/H2B peptide, fluorescence polarization; inhibition, % (concentration not given with the values); actives 0.6% (n = 320,000); AID 2629, 2010; in the data active means inhibition mostly above about 10%, no sharp cut-off; inactive means mostly below about 6.7%;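 further: stock transfer was 7.5 nL into about 10 µL; 0% = median of vehicle wells and 100% = median of positive control wells; one replicate is shown; the record names a cut of 25% in any replicate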
Target sequence (Q9QR71 whole entry, looked up): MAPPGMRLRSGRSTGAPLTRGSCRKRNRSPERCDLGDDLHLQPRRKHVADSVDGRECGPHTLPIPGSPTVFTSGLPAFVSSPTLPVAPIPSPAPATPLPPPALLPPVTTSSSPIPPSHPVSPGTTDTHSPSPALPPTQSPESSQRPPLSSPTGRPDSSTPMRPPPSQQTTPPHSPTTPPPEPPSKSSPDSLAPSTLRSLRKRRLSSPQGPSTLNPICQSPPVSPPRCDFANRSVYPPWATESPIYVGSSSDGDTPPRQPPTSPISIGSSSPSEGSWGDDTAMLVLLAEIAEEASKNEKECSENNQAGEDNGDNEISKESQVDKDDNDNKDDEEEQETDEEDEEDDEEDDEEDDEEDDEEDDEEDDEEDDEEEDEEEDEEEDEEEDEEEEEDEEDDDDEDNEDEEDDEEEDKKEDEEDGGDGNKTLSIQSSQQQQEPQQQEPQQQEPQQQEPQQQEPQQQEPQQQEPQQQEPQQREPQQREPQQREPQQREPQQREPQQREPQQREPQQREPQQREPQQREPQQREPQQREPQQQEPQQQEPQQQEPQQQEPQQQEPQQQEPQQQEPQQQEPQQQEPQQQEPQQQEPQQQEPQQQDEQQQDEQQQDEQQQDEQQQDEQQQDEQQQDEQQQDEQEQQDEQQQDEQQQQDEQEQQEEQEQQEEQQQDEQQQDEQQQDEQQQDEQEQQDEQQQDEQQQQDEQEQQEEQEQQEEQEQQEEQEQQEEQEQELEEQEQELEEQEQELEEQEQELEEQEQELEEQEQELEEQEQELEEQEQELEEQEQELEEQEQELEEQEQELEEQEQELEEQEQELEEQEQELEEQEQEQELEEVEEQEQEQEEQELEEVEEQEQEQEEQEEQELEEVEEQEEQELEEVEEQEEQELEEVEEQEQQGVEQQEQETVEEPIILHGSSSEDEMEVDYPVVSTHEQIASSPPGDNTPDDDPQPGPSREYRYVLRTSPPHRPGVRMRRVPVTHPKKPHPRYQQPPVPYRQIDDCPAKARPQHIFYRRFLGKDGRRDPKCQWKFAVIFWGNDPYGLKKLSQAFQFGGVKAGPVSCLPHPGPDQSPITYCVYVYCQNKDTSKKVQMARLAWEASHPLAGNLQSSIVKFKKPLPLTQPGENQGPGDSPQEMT
Beta apoptosis = inhibitors of cytokine-induced beta cell apoptosis, primary screen, luminescence | AID 435005, 2010 | protection from apoptosis, % (concentration not given with the values) | INS-1E cytokine-induced death, ATP luminescence, 48 h; percent of positive-control rescue, neutral wells zero | actives 0.8% (n = 300,000);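 active means all replicates at 75% or more, or half of them and the mean; inconclusive means half reach 75% but not the mean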;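 further: 0% = cytokine-treated negative control wells and 100% = positive control rescue; higher means more ATP so stronger rescue from cytokine killing; wells of about 40 µL received 100 nL stock; the first replicate is given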
Numbers without * were called inactive; ? = inconclusive; · = no result given; & = joins results of further samples.

SMILES | A1 inh | Vif TR-FRET | Calb FLC | MLL AF4-AF9 inh | RanGTP-Imp inh | T cruzi inh | LANA-H2B inh | Beta apoptosis
CSCCC(NC(=O)COc1ccccc1)C(=O)N(C)Cc1ccc(F)cc1 (stereo not drawn) | -0.1 | -5.7% | · | 1.1 | · | · | -5.1 | -2.4
CC1CCCC(C(=O)OCc2ccccc2)N1 (stereo not drawn) | -0.8 | 5.3% | 0.2 | · | -0.2 | -5.9 | 4.5 | -0.1
Cc1ccccc1N1CCN(C2CCCN(C(=O)c3ccc(Cl)s3)C2)CC1 (stereo not drawn) | -0.1 | · | -20.6 | 4.6 | -1.4 | -6.6 | 1.8 | 0.4
CCNc1nc(C)c2cc(Br)c(=O)n(CC)c2n1 | 0.5 | 2.4% | 33.3 | · | 6.7 | 25.1 | 2.0 | 19.3
O=C(c1cnc2n(c1=O)CCS2)N1CCN(c2ccccc2F)CC1 | 0.1 | 2.5% | -4.9 | -1.8 | 8.5 | -11.1 | -7.8 | -5.9
COc1ccc(CNC(=O)C2CCN(C(=O)[C@@H]3Cc4ccccc4CN3)CC2)cc1 | 0.5 | · | · | -3.1 | 3.6 | 12.4 | -8.0 | -0.5
COc1ccc(S(=O)(=O)N(C)C[C@@H]2Oc3ccc(NS(=O)(=O)c4cn(C)cn4)cc3C(=O)N([C@@H](C)CO)C[C@@H]2C)cc1 | 1.4 | · | · | 1.1 | · | · | 2.4 | -2.1
COc1cccc(NC(=O)COC(=O)C2CCCCC2)c1 | -0.6 | · | · | 0.3 | · | · | -6.4 | -3.1
O=c1[nH]c2ccccc2c2oc(CCl)nc12 | 0.8 | · | -3.7 | · | 0.4 | 4.8 | 4.8 | -5.1
O=C(NCCS(=O)(=O)N1CCN(c2ccccc2)CC1)c1cccs1 | 0.3 | -2.7% | -4.1 | 2.2 | 2.1 | -4.1 | -4.3 | 8.2
COC(=O)c1cccc(NC(=O)CC2C(=O)NCCN2C(=O)Nc2cc(C)cc(C)c2)c1 (stereo not drawn) | 0.1 | -1.9% | -6.6 | 3.4 | 6.9 | -1.4 | -46.4 | -9.7
COC(=O)CCCCCCCCCCN1CCCCC1 | 0.0 | 4.3% | -21.9 | · | 0.1 | -3.2 | 1.6 | ·
COc1nc(-c2ccccc2)c2c(c1C#N)CC(C)(C)OC2 | -0.2 | -4.0% | 8.4 | · | 1.8 | 9.4 | -5.1 | -5.6
CSc1nc(NCC(C)C)c2c3c(sc2n1)CN(C)CC3 | 0.7 | 0.0% | -12.3 | · | 16.9* | 51.4 | -3.2 | 1.1
Cc1ccc(N(CC(=O)NCCc2ccccc2)S(=O)(=O)c2c(C)noc2C)cc1 | 1.2 | -0.1% | -5.5 | 2.7 | 0.7 | 20.0 | -4.8 | 4.7
O=C1c2ccccc2C2=Nc3ccccc3SC(c3cccc(F)c3)C12 (stereo not drawn) | 0.2 | 8.9% | -1.5 | · | -3.9 | 56.5* | · | 11.7
CC1CC(C)CN(C(=O)COC(=O)c2nn(C)c(=O)c3ccccc23)C1 (stereo not drawn) | 0.2 | -1.0% | 0.2 | -0.5 | -3.9 | -18.3 | -1.0 | -0.7
O=c1c2ccccc2nnn1CSc1nnnn1-c1ccccc1 | -1.0 | -2.7% | ? | · | 2.3 | -30.3 | -3.6 | ·
Cc1sc2nc(SCC(=O)Nc3c(C)n(C)n(-c4ccccc4)c3=O)n(C)c(=O)c2c1C | -0.5 | 28.8% | 10.0 | · | -6.3 | -0.2 | -1.9 | -4.2
C=CCN1CCc2c(cc(O)c(O)c2Cl)C(c2ccccc2)C1 (stereo not drawn) | 0.9 | 13.2% | · | 51.8* | 2.4 | 3.1 | 2.5 | -1.6
O=C(O)CCC(=O)Nc1ccc(Br)cc1C(=O)c1ccccc1Cl | -0.3 | 1.4% | 4.9 | -89.7 | -2.9 | -5.4 | 2.1 | -1.9
CCOC(=O)C1CCN(C(=O)Cn2cc(C#N)c3ccccc32)CC1 | 0.2 | 21.0% | -3.3 | · | -4.4 | 7.4 | 2.1 | -4.2
Cc1ccc(Cl)cc1NC(=S)N(CCCN1CCN(C)CC1)Cc1ccco1 | 0.9 | -0.9% | 3.0 | 2.2 | 3.5 | 22.2 | -4.0 | -3.1
N#Cc1nc(COc2ccc(Br)cc2)oc1N1CCCC1 | 0.7 | 19.2%&-2.2% | 33.9 | · | 4.4 | -2.7 | 2.6 | -11.0
Cc1ccc(SCCC(=O)N2CCCC2)cc1 | -0.3 | -0.8% | 7.4 | · | ? | 2.0 | -4.1 | 3.2

As a short view, some entries already given:
SMILES | A1 inh | Vif TR-FRET | Calb FLC | MLL AF4-AF9 inh | RanGTP-Imp inh | T cruzi inh | LANA-H2B inh | Beta apoptosis
Cc1ccccc1N1CCN(C2CCCN(C(=O)c3ccc(Cl)s3)C2)CC1 (stereo not drawn) | -0.1 | · | -20.6 | 4.6 | -1.4 | -6.6 | 1.8 | 0.4
CCNc1nc(C)c2cc(Br)c(=O)n(CC)c2n1 | 0.5 | 2.4% | 33.3 | · | 6.7 | 25.1 | 2.0 | 19.3
O=C(c1cnc2n(c1=O)CCS2)N1CCN(c2ccccc2F)CC1 | 0.1 | 2.5% | -4.9 | -1.8 | 8.5 | -11.1 | -7.8 | -5.9

The results go on.
SMILES | A1 inh | Vif TR-FRET | Calb FLC | MLL AF4-AF9 inh | RanGTP-Imp inh | T cruzi inh | LANA-H2B inh | Beta apoptosis
Cc1ccc(-n2c(C)cc(C(=O)CSc3nnc4ccccn34)c2C)cc1 | -3.3 | -3.9% | -9.4 | 3.7 | ? | 28.5 | 5.8 | 8.4
CN(C)C(CNC(=O)c1ccc(NS(=O)(=O)c2ccc(F)cc2)cc1)c1ccco1 (stereo not drawn) | 0.8 | -0.4% | -4.5 | 0.8 | 2.3 | -4.7 | 3.2 | -1.6
NC(N)=NCC(O)CN(c1ccccc1)c1ccccc1 (stereo not drawn) | -0.8 | 10.3% | -25.1 | 8.7 | 10.7 | 1.8 | -0.8 | -5.6
C/C=C(\C)C(=O)Nc1cccc(C2=NOC3(C2)C[C@@H](C(N)=O)N(C(=O)/C(C)=C/C)C3)c1 (stereo partly drawn) | 0.9 | -2.0% | 15.8 | -2.1 | ? | -19.2 | 7.4 | -1.0
CCCC(=O)NC(C)C(c1cccs1)N1CCN(c2ccccc2)CC1 (stereo not drawn) | -0.5 | -0.5% | -18.5 | · | 2.2 | 0.5 | -0.4 | -7.4
CCc1ccc(C(=O)N2CCC(c3nc4ccccc4s3)CC2)cc1 | 1.2 | -3.3% | 0.1 | · | -0.5 | 4.7 | 2.8 | -3.7
O=C(CN1C(=O)COc2ccccc21)NCCCN1CCCCC1 | 0.6 | -0.9% | -7.3 | -2.5 | -1.1 | 11.4 | 3.3 | -3.8
Cc1cccc(NCN2C(=O)c3ccccc3C2=O)c1 | -0.3 | 1.6% | -12.2 | · | ? | 6.4 | -1.9 | -2.8
Cc1c(NC(=O)c2cc(-c3ccc(Cl)cc3)on2)c(=O)n(-c2ccccc2)n1C | 0.9 | · | 6.8 | 4.6 | 1.2 | -9.3 | 6.6 | -1.8
CCCS(=O)(=O)N1CCCC(C(=O)NCCCN2CCN(c3ccc(F)cc3)CC2)C1 (stereo not drawn) | -0.1 | -3.4% | -3.3 | · | -1.2 | -1.9 | -6.1 | 1.5
O=C(Cc1csc(N2CCOCC2)n1)N/N=C/c1ccc(F)cc1 | 0.1 | 2.1% | 4.6 | · | -0.7 | -12.5 | 3.7 | -4.0
CCn1ncc(Br)c1C(=O)Nc1ccc(F)c([N+](=O)[O-])c1 | 0.1 | 17.1% | -1.5 | -8.8 | 3.8 | -17.4 | -3.3 | -2.4
CCOC(=O)COc1ccc(S(=O)(=O)NCc2ccncc2)cc1 | -1.9 | -5.3% | 0.6 | · | 4.5 | -56.1 | 2.1 | -4.6
Cc1nc(NC(=O)CN(C)S(=O)(=O)c2ccc(Cl)cc2)sc1C | 0.3 | -1.4% | -3.5 | -23.7 | 3.0 | 0.4 | -11.2 | 7.1
COc1ccccc1C(=O)N1CCN=C1SCc1cccnc1 | -2.0 | 0.7% | -4.0 | · | 0.9 | -3.4 | -0.9 | -3.8
CC1CCCC(C)N1C(=O)COC(=O)c1nn(C)c(=O)c2ccccc12 (stereo not drawn) | 0.5 | · | 4.0 | 0.1 | -2.3 | -15.1 | 1.2 | -0.2
CCN(CC)S(=O)(=O)c1ccc(NC(=O)c2cccnc2Cl)c(NC(=O)c2cccnc2Cl)c1 | -1.6 | 0.1% | -8.7 | -2.2 | 1.4 | 9.3 | -5.7 | ·
COc1ccccc1CN1CCNC(=O)C1CC(=O)N(C)Cc1cnccn1 (stereo not drawn) | · | · | 0.6 | -4.1 | -1.1 | -7.4 | · | ·
O=C(N/N=C/c1ccccc1O)c1cccc(C(F)(F)F)c1 | 0.3 | -4.8% | 80.3* | · | 2.2 | -18.2 | -0.1 | ?
CN(C(=O)COC(=O)c1ccccc1NCc1ccco1)c1c(N)n(Cc2ccccc2)c(=O)[nH]c1=O | -0.4 | 9.0% | 1.4 | 0.4 | ? | -7.7 | -2.1 | -0.4
O=S(=O)(c1ccc(-c2ccccc2)cc1)N1CCOCC1 | -0.1 | -0.7% | 2.9 | · | -1.1 | -6.4 | 5.7 | -11.1
CC(C)CC(=O)N1CCN(Cc2ccc3c(c2)OCO3)CC1 | -0.5 | 2.8% | -14.0 | · | 4.5 | -0.8 | 0.2 | 0.1
N#Cc1cc(-c2ccccc2)nc(Oc2ccccc2)n1 | 0.4 | · | -11.5 | 2.2 | -5.0 | 33.3 | -1.9 | -6.7
CCOC(=O)N1CCC(=NNC(=O)c2cc3ccccc3cc2O)CC1 | 1.5 | 19.0% | 44.4 | · | -5.2 | -11.7 | · | 1.1
COc1cc(NC(=O)[C@@H](NC(=O)N2CCn3c2nc2ccccc23)C(C)C)cc(OC)c1 | -0.5 | -4.2% | 8.2 | -8.2 | -2.1 | 17.9 | -5.7 | -5.3
CC1(C)C2CC=C(/C=N/n3cnnc3)C1C2 (stereo not drawn) | 0.1 | -4.5% | -9.9 | · | -2.1 | -15.2 | -2.8 | -7.3
O=C(c1ccccc1)c1cccc(NC(=O)C2CC2)c1 | -0.5 | -6.4% | 3.4 | · | 0.1 | 20.1 | 1.7 | 3.7
Cc1ccc(S(=O)(=O)N2CCN(C(=O)CSc3nc4ccccc4c(=O)[nH]3)CC2)cc1 | 0.0 | -27.9% | -0.6 | · | -4.4 | 0.2 | 3.1 | ·
O=C(CSc1nnc2c(n1)[nH]c1ccc(F)cc12)NC1CC1 | -0.3 | · | 2.7 | -0.3 | -4.5 | 3.3 | 1.6 | -2.4
Cc1ccc(N2CCN(C(=O)c3cn(CC4CCCCC4)nn3)C(C)C2)cc1 (stereo not drawn) | -2.3 | 6.4% | -12.5 | 2.8 | -4.2 | 27.5 | -6.9 | -2.3
